Screening results as filed in PubChem BioAssay.
GIRK2 activ: GIRK2 channel activation; AID 1259325; HEK293-GIRK2 thallium flux, Thallos fluorescence; calls only for hits at 25 µM; P48051; hit rate 0.05% among 63,000;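 active = among the strongest 0.2% of first-round signals and kept after retests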;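 note: first round at about 10 µM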
Target sequence (P48051 whole entry, looked up): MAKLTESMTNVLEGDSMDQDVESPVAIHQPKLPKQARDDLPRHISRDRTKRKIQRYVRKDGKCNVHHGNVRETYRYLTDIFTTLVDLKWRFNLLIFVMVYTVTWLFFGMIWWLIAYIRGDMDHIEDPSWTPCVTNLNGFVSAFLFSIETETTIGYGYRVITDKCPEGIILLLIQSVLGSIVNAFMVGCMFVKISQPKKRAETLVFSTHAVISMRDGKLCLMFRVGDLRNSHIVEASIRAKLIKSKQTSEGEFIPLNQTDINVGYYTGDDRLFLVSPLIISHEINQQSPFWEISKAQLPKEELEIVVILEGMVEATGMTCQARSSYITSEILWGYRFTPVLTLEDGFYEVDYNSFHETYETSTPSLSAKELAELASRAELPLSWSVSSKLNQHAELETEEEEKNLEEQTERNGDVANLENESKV
Calls only; i = inactive. Not all compounds are listed; the hit share may differ from the screen's.

SMILES | GIRK2 activ
C[C@H](CCC(=O)O)[C@H]1CC[C@H]2[C@@H]3C(=O)C[C@@H]4CC(=O)CC[C@]4(C)[C@H]3CC(=O)[C@]12C | i
O=C(C(=O)N1CCC(CSc2ccccn2)CC1)c1c[nH]c2ccccc12 | i
Cc1ccccc1C(=O)Nc1ccccc1NC(=O)Cc1cn(C)c2ccccc12 | i
Cn1c(=O)[nH]c(=O)c2c1nc(N1CCN(CC(N)=O)CC1)n2CCCc1ccccc1 | i
COc1ccc(CNC(=O)c2cn(C)nc2C)cc1 | i
O=C(NC1CC(=O)N(C2CC2)C1)c1cc2ccccc2[nH]1 (centres undefined) | i
COc1ccc(CC(=O)N2CCC(COCc3ccc(Cl)cc3)CC2)cc1OC | i
O=C1c2cccc3cccc(c23)C(=O)N1CCOCCO | i
Cc1cccc(NC(=O)c2sccc2S(=O)(=O)N2CCN(c3ccccc3)CC2)c1 | i
Cc1cc(=O)n2c(-c3cccc(NC(=O)Nc4cccs4)c3)csc2n1 | i
COc1ccc(C(C)C)cc1S(=O)(=O)N1CCCCCC1 | i
COc1ccc(-c2nn3c(N4N=C(C)CC4=O)cc(C)nc3c2C)cc1OC | i
O=C(Cn1cnc2c([nH]c3ccccc32)c1=O)N1CCN(C(c2ccccc2)c2ccccc2)CC1 | i
O=C(COc1ccc(Cl)cc1)Nc1cnc(Oc2ccccc2F)nc1 | i
O=C(NC(c1ccccc1)c1ccccc1)C(c1ccccc1)n1cccc1 (centres undefined) | i
O=C(CN1CCN(Cc2nc(-c3ccccc3)cs2)CC1)NCc1ccco1 | i
COc1ccc(CNC(=O)C2CCN(c3ncnc4c3sc3ncccc34)CC2)cc1OC | i
CC(C)(C)S(=O)(=O)c1ccc(NCCc2c[nH]c3ccccc23)nn1 | i
O=C(NCCc1ccoc1)C(=O)Nc1cccc(N2CCCC2=O)c1 | i
COc1ccccc1NC(=O)NCc1nn(C2CCCC2)c(=O)c2ccccc12 | i
O=C(CCc1nc2sc3c(c2c(=O)[nH]1)CCCCC3)NC1CCN(Cc2ccccc2)CC1 | i
Cc1nc(N2C(=O)C(O)=C(C(=O)c3cccs3)C2c2ccc([N+](=O)[O-])cc2)sc1C (centres undefined) | i
CC(C)c1nnc(NC(=O)c2cc(-c3ccncc3)nc3ccccc23)s1 | i
Cc1cc(C)n(-c2ccc(=O)n(CCNC(=O)c3cncc(Br)c3)n2)n1 | i
CC(C)CCCC(C)CCCC(C)CCCC(C)CC(=O)O (centres undefined) | i
Next part
SMILES | GIRK2 activ
O=C(CN1CCN(Cc2nc3ccccc3[nH]2)CC1)NCCc1ccccc1 | i
COc1ccc2nc(CN3CCN(C(=O)C4CCCC4)CC3)[nH]c2c1 | i
O=C(NCc1ccco1)C1CCCN(c2nc3c(-c4ccccc4)csc3c(=O)[nH]2)C1 (centres undefined) | i
CC(=O)Nc1nc2c(s1)CN(C(=O)c1cc(-c3ccc(F)cc3)n[nH]1)CC2 | i
CC(=O)COc1ccc2c(c1)O/C(=C\c1ccc(C(C)C)cc1)C2=O | i
COc1ccc(NC(=O)CN(C)C(=O)c2c[nH]c3ccccc23)cc1Cl | i
Cc1noc(CNC(=O)NC(c2ccccc2)c2ccccc2)n1 | i
NS(=O)(=O)c1cccc(Nc2cc(-c3ccc(F)cc3)[nH]n2)c1 | i
COC(=O)c1ccc(NC(=O)C(=O)NCCc2c[nH]c3ccccc23)cc1 | i
COc1ccc(S(=O)(=O)N2CCC(c3nc(-c4ccc(C(F)(F)F)cc4)no3)CC2)cc1 | i
O=C(Cc1ccc(F)cc1)N1CCC(c2ccccc2)C1 (centres undefined) | i
COc1ccccc1-c1cn2nnc(C(=O)NCc3ccccc3C(F)(F)F)c2c(=O)[nH]1 | i
CCCN(Cc1ccsc1)C(=O)OC | i
O=C(NCCCOc1cccc2cccnc12)c1ccc(F)cc1Cl | i
COc1ccccc1OCC(=O)NCC1(CO)CC1 | i
O=C(NCCC1=CCCCC1)C(=O)Nc1ccccc1[N+](=O)[O-] | i
O=C(NCCN1CCN(c2ccc(Cl)cc2)CC1)NC1CC1 | i
O=C(NCCC(O)c1ccccc1)C(c1ccccc1)c1ccccc1 (centres undefined) | i
O=C(Cn1nc(-c2ccccc2)c2sc(N3CCOCC3)nc2c1=O)NCc1ccco1 | i
COCCn1c(=O)c2c(nc3n(-c4cc(C)ccc4C)c(C)c(C)n23)n(C)c1=O | i
Cc1c(Cl)cccc1NC(=O)c1nnn(-c2ccccc2)c1C1CC1 | i
CN1C(=O)c2ccc(-c3ccccc3)nc2NC1C(=O)N1CCN(c2ccccc2)CC1 (centres undefined) | i
Cc1nc2sc(C)c(C)n2c(=O)c1NC(=O)C(C)Oc1ccc(Cl)cc1Cl (centres undefined) | i
COc1cc(C(=S)N2CCN(C(=S)c3cccc(Br)c3)CC2)cc(OC)c1OC | i
CC(C)c1nc2ccccc2n1Cc1ccc(F)cc1 | i
The list goes on:
SMILES | GIRK2 activ
COc1ccc(C(=O)CSc2ncccc2-c2nc3ccccc3[nH]2)cc1 | i
O=C(O)CCNC(=O)c1ccc(N=Nc2ccc(O)c(C(=O)O)c2)cc1 | i
COc1ccc(CCC(=O)NCCS(=O)(=O)N2CCc3ccccc3C2)cc1 | i
COC(=O)c1cc(OC)c(OC)cc1NC(=O)C1COc2ccccc2C1 (centres undefined) | i
CCN(CC)S(=O)(=O)c1ccc(-c2nc(C#N)c(NCc3ccccc3Cl)o2)cc1 | i
COc1cccc(C(O)=C2C(=O)C(=O)N(c3cc(C)on3)C2c2cccc(OC)c2)c1 (centres undefined) | i
COc1ccccc1Oc1coc2cc(OC(=O)c3ccc4c(c3)OCO4)ccc2c1=O | i
Cc1ccc(S(=O)(=O)NCc2sc(-c3cccs3)nc2C)s1 | i
Cc1ccc(-c2nsc3c(=O)n(CC(=O)Nc4ccc(C(C)C)cc4)cnc23)cc1 | i
CC(Cc1cccs1)NC(=O)CN1C(=O)CCC1=O (centres undefined) | i
CN1CC(c2nc3ccccc3n2CCOc2ccccc2)CC1=O (centres undefined) | i
CCc1cccc(CC)c1NC(=O)Cn1nc(-c2cccs2)c2sc(N3CCCC3)nc2c1=O | i
CS(=O)(=O)N1CCN(C(=O)c2coc(NC(=O)Cc3cccs3)n2)CC1 | i
COc1cccc2sc(N(C)CC(=O)NCCc3c[nH]c4ccccc34)nc12 | i
COc1ccc(CNC(=O)Cn2cnc3c(c2=O)CN(Cc2ccccc2)CC3)cc1OC | i
CC(C)CCNC(=O)c1[nH]c2ccccc2c1NC(=O)c1ccc(Cl)cc1 | i
O=C(NCCC(O)c1ccc2c(c1)OCO2)C(=O)NC1CCCC1 (centres undefined) | i
O=C(O)CCC/C=C\C[C@@H]1C(/C=C/[C@@H](O)C2Cc3ccccc3C2)[C@@H](F)C[C@@H]1O (some centres undefined) | i
O=C(Cn1cnc2c(-c3ccc(F)cc3)csc2c1=O)Nc1cccc(F)c1 | i
COc1ccc(-c2ccc(C(=O)Nc3ccccc3[N+](=O)[O-])o2)c([N+](=O)[O-])c1 | i
CCN(CC)C(=O)c1ccc(=O)n(Cc2ccccc2)n1 | i
CCOc1ccccc1NC(=O)c1nnn(-c2ccc(OC)cc2)c1C | i
COc1cc(OC)c(NC(=O)c2cn(CC(O)c3ccccc3OC)nn2)cc1Cl (centres undefined) | i
CCOC(=O)c1cc(S(=O)(=O)Nc2ccc(CC)cc2)[nH]n1 | i
CCc1cccc(Nc2nc(C)cc(=O)n2CC(=O)Nc2cc(OC)cc(OC)c2)c1 | i
More compounds
SMILES | GIRK2 activ
Cc1ccc(S(=O)(=O)c2nnn3c2nc(N2CCOCC2)c2cc(Cl)ccc23)cc1C | i
O=C(N1CCCC(c2nnc(C(F)(F)F)o2)C1)C1(c2cccs2)CCCC1 (centres undefined) | i
Cc1cccc2c1ncn1c(=O)n(CC(=O)Nc3cccc(Cl)c3)nc21 | i
Cc1nnc(C2CCCN(C(=O)Cn3c(=O)oc4ccccc43)C2)s1 (centres undefined) | i
O=C(Nc1ccc(F)c(Cl)c1)C1COCC(=O)N1Cc1ccccc1 (centres undefined) | i
CCCc1cc(=O)[nH]c(SCc2nc(-c3ccc(OC(C)C)cc3)no2)n1 | i
O=C1/C(=C/c2cccc(Cl)c2)Oc2cc(OC(=O)C3CC3)ccc21 | i
COc1ccc(-c2noc(-c3ccc(=O)n(CC(=O)c4ccc5c(c4)OCO5)c3)n2)cc1F | i
CCCCCC(O)/C=C/[C@H]1C(O)CC(O)C1CCCCCCC(=O)O (some centres undefined) | i
CCOC(=O)C1CCCN(C(=O)CSc2nnc(CCc3nc4ccccc4s3)o2)C1 (centres undefined) | i
COc1ccc(-c2nn3ncccc3c2-c2ccnc(Nc3ccc(Cl)c(C(F)(F)F)c3)n2)cc1 | i
COc1ccc(-c2csc(-c3cc4ccc(O)cc4oc3=O)n2)cc1 | i
CCN(Cc1ccccc1)C(=O)C(=O)c1cn(CC(=O)N2CCOCC2)c2ccccc12 | i
NC(=O)CNC(=O)c1ccc(OCC(=O)C2CC2)cc1 | i
COC(=O)c1ccc(OCC(O)Cn2cc(/C=N\O)c3ccccc32)cc1 (centres undefined) | i
Cc1ccccc1C(=O)NCCCN1CCN(c2ccccc2)CC1 | i
CCOc1cc(C(NC(=O)c2cccs2)NC(=O)c2cccs2)ccc1OC | i
COc1ccc(C(=O)NCC(c2cccn2C)N2CCN(C)CC2)c(OC)c1OC (centres undefined) | i
CC(=O)Nc1ccc(S(=O)(=O)Nc2cnoc2)cc1 | i
COc1ccc(F)cc1C(=O)CN1C(=O)COc2ccccc2C1=O | i
O=S(=O)(NCc1nn(C2CCCC2)c2c1CCCC2)c1cccs1 | i
COc1ccc(CCS(=O)(=O)NCC(O)(c2ccccc2)C2CC2)cc1 (centres undefined) | i
CCC(C(=O)NCC1CCN(c2cnccn2)CC1)c1ccccc1 (centres undefined) | i
Brc1ccc(Nc2nc(-c3ccc4c(c3)OCO4)cs2)nc1 | i
O=C(CCCCCn1c(=S)[nH]c2ccc(Br)cc2c1=O)NCc1ccccc1Cl | i

An excerpt of these results, with the structure last.
| GIRK2 activ | SMILES |
| --- | --- |
| i | Cc1ccc(S(=O)(=O)c2nnn3c2nc(N2CCOCC2)c2cc(Cl)ccc23)cc1C |
| i | O=C(N1CCCC(c2nnc(C(F)(F)F)o2)C1)C1(c2cccs2)CCCC1 (centres undefined) |
| i | Cc1cccc2c1ncn1c(=O)n(CC(=O)Nc3cccc(Cl)c3)nc21 |
| i | Cc1nnc(C2CCCN(C(=O)Cn3c(=O)oc4ccccc43)C2)s1 (centres undefined) |
| i | O=C(Nc1ccc(F)c(Cl)c1)C1COCC(=O)N1Cc1ccccc1 (centres undefined) |
| i | CCCc1cc(=O)[nH]c(SCc2nc(-c3ccc(OC(C)C)cc3)no2)n1 |
| i | O=C1/C(=C/c2cccc(Cl)c2)Oc2cc(OC(=O)C3CC3)ccc21 |
| i | COc1ccc(-c2noc(-c3ccc(=O)n(CC(=O)c4ccc5c(c4)OCO5)c3)n2)cc1F |
| i | CCCCCC(O)/C=C/[C@H]1C(O)CC(O)C1CCCCCCC(=O)O (some centres undefined) |
| i | CCOC(=O)C1CCCN(C(=O)CSc2nnc(CCc3nc4ccccc4s3)o2)C1 (centres undefined) |
| i | COc1ccc(-c2nn3ncccc3c2-c2ccnc(Nc3ccc(Cl)c(C(F)(F)F)c3)n2)cc1 |
| i | COc1ccc(-c2csc(-c3cc4ccc(O)cc4oc3=O)n2)cc1 |
| i | CCN(Cc1ccccc1)C(=O)C(=O)c1cn(CC(=O)N2CCOCC2)c2ccccc12 |
| i | NC(=O)CNC(=O)c1ccc(OCC(=O)C2CC2)cc1 |
| i | COC(=O)c1ccc(OCC(O)Cn2cc(/C=N\O)c3ccccc32)cc1 (centres undefined) |
| i | Cc1ccccc1C(=O)NCCCN1CCN(c2ccccc2)CC1 |

(cont.)
SMILES | GIRK2 activ
Cc1nnc(NC(=O)CN2CCN(CC(O)C3CC3)CC2)s1 (centres undefined) | i
O=C(Nc1ccccc1C(F)(F)F)N1CC(c2nc(C3CC3)no2)C1 | i
COc1ncccc1C(=O)N1CC(c2nc(-c3cccs3)no2)C1 | i
CC(C)c1ccc(CNC(=O)c2nnn(-c3ccc(F)cc3)c2-c2ccncc2)cc1 | i
OCCN(Cc1ccccc1)CC(O)COc1cccc2ccccc12 (centres undefined) | i
Cc1nc(SCC(=O)Nc2c(C)cccc2Cl)cc(-c2ccccn2)n1 | i
COc1ccc(N2C(=O)NC3CC2(C)Oc2c(OC)cc(Br)cc23)c(OC)c1 (centres undefined) | i
CCOC(=O)Oc1ccc2oc(C)c(C(=O)OCCOC)c2c1 | i
O=C(CN1CCN(S(=O)(=O)c2ccc(Cl)s2)CC1)c1cccs1 | i
COc1cc(NC(=O)Cn2cnc3c(sc4cccc(F)c43)c2=O)cc(OC)c1 | i
COc1ccc(CNC(=O)NCC#CCN(C(C)C)C(C)C)cc1OC | i
N#Cc1c(C(F)(F)F)cc(-c2ccccc2)nc1SCCC(=O)Nc1nccs1 | i
CCCS(=O)(=O)N1CCN(c2cc(-n3cccc3)nc(C)n2)CC1 | i
O=C1COc2ccc(Br)cc2CN1Cc1ccccc1C(F)(F)F | i
O=C(CCCn1nnc2ccccc2c1=O)Nc1ccc(C(F)(F)F)cc1 | i
CN1CCc2c(sc(NC(=O)c3ccc(N(C)C)cc3)c2-c2nc3ccccc3s2)C1 | i
COCCn1c(=O)c2c(nc3n(-c4ccccc4C)c(-c4ccccc4)cn23)n(C)c1=O | i
COc1ccc2c(c1)c(CC(=O)NCCCCNC(=O)c1ccc(I)cc1)c(C)n2C(=O)c1ccc(Cl)cc1 | i
COc1ccc(CNC(=O)CC2CCCCN2S(=O)(=O)c2ccccc2)cc1 (centres undefined) | i
CCOC(=O)N1CCC(c2nnc(C3CC3)o2)CC1 | i
O=C(c1nnn(-c2ccc(Cl)cc2)c1-c1cccnc1)N1CCN(c2ccccc2)CC1 | i
COc1ccccc1-c1ccc(N2CCC(C(=O)Nc3nnc(C)s3)CC2)nn1 | i
Cc1cc(C)c2c(n1)sc1c(=O)n(CC(=O)Nc3ccc4c(c3)OCO4)cnc12 | i
CCSc1ccccc1C(=O)NCCC(O)c1cc(C)oc1C (centres undefined) | i
Cn1c(=O)[nH]c(=O)c2c1nc(N1CCOCC1)n2CCN1CCCCC1 | i
CCOc1ccc(NC(=O)C2CCN(c3c(C#N)cnc4ccc(F)cc34)CC2)cc1 | i
O=C(CSc1nc2c(c(=O)[nH]1)CCCC2)N1CCOCC1 | i
